# MT1-MMP act inh = inhibitors of human MT1-MMP activation | P50281 | HT1080 RFP-PRO-GFP cells, GFP/RFP ratio fluorescence, overnight; percent of plate control window, DMSO zero | actives 0.061% (n = 360,000) | GFP/RFP ratio change, % at 20 µM;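 active = GFP/RFP ratio change of at least 30% with cell ATP level not reduced by more than half and red fluorescence within 50% of control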; note: strong numbers were not always called active
#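 Read-out: GFP/RFP fluorescence ratio; Test system: RFP-PRO-GFP reporter HT1080 cells; Compound dosing: single-point 20 µM compound, 1% DMSO; Times: overnight compound exposure at 37 °C.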
# eIF4H inh = inhibitors of RNA binding by human eIF4H; eIF4H fluorescence polarization binding assay; inhibition, % at 35 µM; actives 0.94% (n = 290,000); AID 2012;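 active = 50% or more with normal probe brightness, or confirmed in later tests; inconclusive = above 50% with abnormal brightness, or retests that disagree; inactive = below 50% or failed in later tests; about a fifth of its hits are not listed in these tables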;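 note: calls also rest on retests at 20 µM and on dose response follow-up; 0% = protein and probe with vehicle and 100% = probe without protein; strong numbers were not always called active; many hits fall short of the cut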
# PABP polyA inh = PABP-poly(A) binding inhibition. actives 1% (n = 290,000). AID 2014. PABP-poly(A) RNA binding, fluorescence polarization. inhibition, % at 35 µM;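 active = 50% or more with normal probe brightness, or confirmed in later tests; inconclusive = above 50% with abnormal brightness, or retests that disagree; inactive = below 50% or failed in later tests; about a fifth of its hits are not listed in these tables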;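 note: calls also rest on retests at 20 µM and on dose response follow-up; controls were probe without protein and protein plus probe with vehicle; some compounds called inactive have numbers as strong as hits; many hits fall short of the cut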
# Target sequence (P11940 whole entry, looked up): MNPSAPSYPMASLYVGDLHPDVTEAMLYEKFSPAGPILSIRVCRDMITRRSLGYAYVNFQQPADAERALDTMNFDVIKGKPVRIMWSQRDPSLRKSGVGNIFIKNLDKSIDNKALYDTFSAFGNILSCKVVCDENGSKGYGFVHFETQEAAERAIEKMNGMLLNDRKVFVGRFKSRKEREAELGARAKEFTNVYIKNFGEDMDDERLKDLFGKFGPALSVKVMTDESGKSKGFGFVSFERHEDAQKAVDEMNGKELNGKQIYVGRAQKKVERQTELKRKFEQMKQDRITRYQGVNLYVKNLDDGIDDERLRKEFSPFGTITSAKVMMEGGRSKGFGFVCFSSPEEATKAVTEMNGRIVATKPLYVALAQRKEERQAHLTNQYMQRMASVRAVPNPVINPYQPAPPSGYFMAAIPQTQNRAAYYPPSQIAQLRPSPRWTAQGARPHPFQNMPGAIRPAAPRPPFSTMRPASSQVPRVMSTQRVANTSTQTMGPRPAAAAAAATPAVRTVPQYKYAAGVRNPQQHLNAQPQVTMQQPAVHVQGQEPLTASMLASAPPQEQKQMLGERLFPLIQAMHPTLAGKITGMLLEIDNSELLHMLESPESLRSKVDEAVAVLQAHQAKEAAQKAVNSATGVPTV
# Env fusion inh = inhibitors of HIV Env-mediated cell fusion. HeLa-JRFL Env/CEM21 cell fusion, luciferase. inhibition, % at 12.3 µM. actives 1.1% (n = 360,000). AID 651610;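 active = mean replicate inhibition score of at least 50 and every replicate individually at or above 50; inconclusive = only one of the two criteria met; inactive = mean below 50 and not all replicates reaching 50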;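 note: 0% = plate neutral controls and 100% = maraviroc near 300 nM; one replicate is shown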
# UUG fidelity = yeast start codon fidelity modulation; S. cerevisiae UUG-firefly luciferase reporter, luminescence/redox ratio; activity score, % at 18.7 µM; actives 0.13% (n = 350,000); AID 602363;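 active = replicate mean at a twofold rise or more, about +100% in these data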;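 note: firefly luciferase made from a UUG start codon reports start codon fidelity; reporter light over untreated wells divided by growth signal over untreated wells; some hits fall short of that in this replicate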
# Rce1 inhib = blocks yeast Ras-converting enzyme | actives 0.27% (n = 290,000) | calls only | Q03530 | yeast membranes, quenched prenylated peptide cleavage fluorescence;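 active = fall in fluorescence gain of 50% or more versus controls, with final raw signal at or below 3038400; inconclusive = same 50% fall but final raw signal above 3038400; inactive = fall in fluorescence gain under 50%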;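 note: plate controls were neutral control wells for no effect and wells lacking membranes for full effect; tested at 10 µM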
# CSC inhib = blocks cancer stem cells | AID 2717 | actives 1.1% (n = 300,000) | cancer stem cell-like cells viability, luminescence | inhibition, % at 7.5 µM;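 active = mean at 75% or more and at least half the replicates too; inconclusive = mean and replicates disagree; tested in HMLE shEcad cells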;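 note: 0% = median of negative and 100% = median of positive control wells; the first replicate is given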
# eIF4H inh retest = further read-out of eIF4H inh, marked with its call; inhibition, %; compound at 20 µM; confirmation average;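 mean of two retest wells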
# PABP polyA inh retest = recorded beside PABP polyA inh, whose call it bears; inhibition, %; compound at 20 µM; confirmation repeats;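 mean of two retest wells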
# MT1-MMP act inh RFP = recorded beside MT1-MMP act inh, whose call it bears; RFP signal change, %; measured here: RFP expression control read;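 0 = vehicle wells; hits needed this value within 50% of zero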
# * = called active by the depositor; i = inactive; ? = inconclusive; . = no result given; & = joins results of further samples.
SMILES,MT1-MMP act inh,MT1-MMP act inh RFP,eIF4H inh,PABP polyA inh,Env fusion inh,UUG fidelity,Rce1 inhib,CSC inhib,others
CC(OC(=O)CCN1C(=O)c2cccc([N+](=O)[O-])c2C1=O)C(=O)Nc1cc(Cl)cc(Cl)c1 (stereo unspecified),0,0,-1,2,20,.,i,6,
Cc1cccc(Nc2nnc(SCC(=O)NCc3cccs3)s2)c1C,3,3,0,-4,-7,.,i,8,
Cc1ccc(NC(=O)CN2C(=O)NC3(CCCc4ccccc43)C2=O)c([N+](=O)[O-])c1 (stereo unspecified),0,3,0,2,-20,15,i,.,
CCc1ccccc1NC(=O)CSc1nnc(-c2cc(C)[nH]n2)n1N,1,4,0,-2,3,-18,i,-1,
CCOC(=O)C1(CCc2ccccc2)CCN(C(=O)c2ccoc2)CC1,-5,-4,-2,0,4,10,.,-10,
COc1ccc(C(=O)CCC(=O)N2CCN(c3ccc([N+](=O)[O-])cc3)CC2)cc1,3,-6,2,1,11,-7,i,0,
O=C(O)Cc1cc(=O)[nH]n(-c2ccccc2)c1=O,-6,2,.,.,23,-13,.,.,
COc1ccc(-c2ccc(C(=O)NC3CCCCC3)c3occc23)c(C)c1,-8,-16,.,.,-22,-6,.,.,
COc1ccc(F)c(CN2CCC(n3nccc3NC(=O)C3CCOC3)CC2)c1 (stereo unspecified),1,-2,0,-2,.,-7,i,-8,
C[C@H](NC(=O)N1CCC(Cc2ccccc2)CC1)C(=O)O,-7,0,0,-14,19,-18,i,-4,
Cc1cc(NC(=O)c2ccoc2C)no1,-3,-1,4,5,-21,-8,i,20,
CCCN1C(=O)c2cc(C(=O)NCCc3cccc(C)c3)ccc2C1O (stereo unspecified),-1,2,-8,9,-20,-1,i,1,
CC1CCN(c2nc3nonc3nc2Nc2ccc(F)cc2)CC1,-11,-27,-10,12,-26,-7,i,-2,
N#CCc1nn(-c2ccc(F)cc2)c(N)c1C#N,-2,6,21,-14,-4,-12,i,0,
CCCc1cc(=O)[nH]c(NCCc2ccccc2)n1,-1,0,-12,8,2,-14,i,-13,
Cc1ccc(C(=O)CC2C(=O)N(c3ccccc3)C(=S)N2c2ccccc2)cc1 (stereo unspecified),-3,-3,-12,-10,-13,.,i,33,
O=C(CCn1c(=O)c2sccc2n(CC(=O)OCc2ccccc2)c1=O)NCc1ccccc1,5,2,-6,-15,-53,-4,i,-13,
O=C(CN1CCN(Cc2ccccc2)C1=O)NCc1ccc(Cl)cc1,-2,1,-3,-2,.,8,i,-10,
COc1ccnc(NCc2cccc(C(F)(F)F)c2)c1C#N,1,-1,-3,0,.,-15,i,-3,
CCOc1ccc(NC(=O)CCNC(=O)Cn2ccc3ccccc3c2=O)cc1,-4,-1,-11,6,.,-18,i,-8,
O=C(NNc1nccc(C(F)(F)F)n1)Nc1cccc(Cl)c1,-5,-1,11,5,.,2,i,-3,
Cn1nc(CC(=O)Nc2cccc3ncccc23)c2ccccc2c1=O,-8,-15,-4,-5,?,-13,i,-14,
Nc1nc2c(C(=O)N3CCOCC3)nnn2c2ccccc12,-6,2,-11,12,-13,.,.,-3,
COc1cc(OC)cc(C(=O)NCCCN2CCOCC2)c1,-2,2,-7,-2,.,-34,i,.,
O=C1c2ccccc2C(=Cc2cccnc2)c2ccccc21,-8,4,.,.,-15,-16,.,.,
CCC(C)(C)C1CCc2[nH]nc(C(=O)NCCCNC(=O)OC(C)(C)C)c2C1 (stereo unspecified),3,-4,.,.,30,-19,.,-4,
Cn1ccnc1C(=O)c1cc(SCC(=O)N2CCOCC2)nc2ccccc12,3,6,-2,1,-4,.,i,-32,
COc1ccccc1CCNC(=O)CCNS(=O)(=O)c1ccc(NC(C)=O)cc1,-1,1,.,.,.,6,.,-6,
CCN(CCn1cccn1)C(=O)c1ccc(OC2CCN(C(=O)COC)CC2)cc1,-2,-1,-5,-5,-11,-1,i,-8,
O=C(CCC(=O)Nc1ccc(Cl)cc1Cl)N/N=C/c1ccc([N+](=O)[O-])o1,-3,-7,50,22,22,.,i,-9,
O=C(NC(=S)NN1CCCCC1c1cccnc1)c1ccc(Br)cc1 (stereo unspecified),5,7,0,-1,-7,-35,i,14,
CCOC(=O)C1=CN(CC2CCCCC2)CCC1=O,1,5,.,.,-45,-10,.,.,
O=C(CSc1nnc(Cc2ccccc2)o1)NCCN1C(=O)CSC1=O,-2,7,-2,-3,-5,8,i,3,
CC(=O)c1cccc(N(CC(=O)Nc2ccc(F)cc2F)S(C)(=O)=O)c1,-2,3,1,1,-49,-5,i,-9,
CCCNC(=O)c1c(CSc2ccccc2)noc1C(=O)NCc1ccccc1,2,-2,0,15,10,-18,i,22,
CCOC(=O)/C=C1\SCC(=O)N1CC(=O)NCCOC,8,4,-1,2,-3,-18,i,-5,
Oc1ccccc1C=Nc1cccc2ccccc12,5,0,12,16,27,-9,i,-3,
N#CC1=C2CCCCC2(O)NC1=O (stereo unspecified),1,1,.,.,28,-17,.,.,
CC(C)c1ccc(S(=O)(=O)N2CCN(C(=O)C3=COCCO3)CC2)cc1,-2,-7,.,.,-190,-3,.,-7,
COCCNC(=O)C1CCCN(S(=O)(=O)c2cccc3nsnc23)C1 (stereo unspecified),.,.,-10,-5,1,-18,i,7,
CC(=O)c1cccc(NC(=O)CCNS(=O)(=O)c2cccc(C(C)=O)c2)c1,-2,-4,11,1,5,-17,i,.,
CC(=O)c1cccc(OCc2cc(C(=O)N(C)Cc3ccc(C)o3)no2)c1,1,4,4,-4,-7,-17,i,-9,
Cc1cc(C)n(-c2ccc(NC(=O)C3CCCCN3C(=O)c3ccoc3C)cc2)n1 (stereo unspecified),0,2,0,-10,-8,-8,i,-6,
Nc1cc(=O)nc(SCC(=O)N2CCN(c3ccccc3)CC2)n1-c1ccc(F)cc1,3,5,-13,-14,-8,-9,i,-15,
Cc1cc(C)c(NC(=O)Cn2nnc(C(=O)Nc3ccc(F)cc3F)c2N)c(C)c1,-1,-4,-10,5,20,-2,i,-11,
COc1ccc(S(=O)(=O)NCC2CCCN(Cc3ccccc3C)C2)cc1 (stereo unspecified),-3,-1,-5,-5,5,.,i,-7,
COc1cccc(C(=O)N(Cc2cc3cc(C)ccc3[nH]c2=O)C(C)C)c1,5,4,-7,5,.,.,i,-4,
O=C(Oc1cccc2ccccc12)c1ccncc1,-3,5,0,1,-56,-17,i,12,
c1ccc2c(SCc3cn4cccnc4n3)ncnc2c1,1,-4,-11,0,.,-11,i,.,
COC(=O)[C@H](CC(C)C)NC(=O)N1CCN(c2cccc(C(F)(F)F)c2)CC1,7,0,-7,-16,.,-11,i,-2,
COc1cccc(C(O)c2nc(-c3cccc(F)c3)cs2)c1 (stereo unspecified),0,-8,.,.,-7,-30,.,.,
Cc1cc(Nc2cccc([N+](=O)[O-])c2)c2cccc(C)c2n1,3,1,-9,7,12,-18,i,-7,
COc1ccccc1-c1nc2ccccc2c(=O)n1O,3,4,-6,-2,-10,-8,i,-9,
O=C(N1CCCCCC1)N1CCN(S(=O)(=O)c2ccccc2)CC1,3,4,-9,-4,-6,-7,i,-9,
COC(=O)C(O)(NC(=O)OCc1ccccc1)C(F)(F)F (stereo unspecified),1,2,6,-14,11,-34,i,14,
O=C(O)c1ccccc1C(=O)NNc1ccc(Cl)cc1Cl,-2,4,1,-10,-10,.,i,0,
CCOC(=O)c1c(NC(=S)NCc2ccccc2)sc2c1CCN(C(=O)OCC)C2,7,-2,-8,-3,3,-11,i,.,
Cc1cc(C)cc(CC2CC(=O)N(c3ccc(Cl)cn3)C2=O)c1 (stereo unspecified),2,5,5,2,-28,-4,i,-4,
CSc1nc(C(=O)N2CCc3c([nH]c4ccccc34)C2c2ccccn2)cs1 (stereo unspecified),-4,-2,3,0,-10,-7,i,13,
Cc1nc(-c2ccc(NC(=O)c3ccco3)cc2)cs1,1,-2,0,-3,28,-86,i,?,

# Random excerpt: 2 entries already listed
SMILES,MT1-MMP act inh,MT1-MMP act inh RFP,eIF4H inh,PABP polyA inh,Env fusion inh,UUG fidelity,Rce1 inhib,CSC inhib,others
Cc1ccc(NC(=O)CN2C(=O)NC3(CCCc4ccccc43)C2=O)c([N+](=O)[O-])c1 (stereo unspecified),0,3,0,2,-20,15,i,.,
CCN(CCn1cccn1)C(=O)c1ccc(OC2CCN(C(=O)COC)CC2)cc1,-2,-1,-5,-5,-11,-1,i,-8,

# Continued.
SMILES,MT1-MMP act inh,MT1-MMP act inh RFP,eIF4H inh,PABP polyA inh,Env fusion inh,UUG fidelity,Rce1 inhib,CSC inhib,others
C[C@H]1CN([C@@H](C)CO)C(=O)c2cc(-c3cccc(F)c3)cnc2O[C@H]1CN(C)C(=O)c1cnccn1,2,4,.,.,18,10&3&10,.,.,
CC(C)c1nc(CNC(=O)c2cc(COc3c(F)cccc3F)on2)cs1,3,1,-8,-6,7,.,i,4,
COC(=O)c1cc(Nc2cc(C)c3ccc(O)cc3n2)cc(C(=O)OC)c1,-5,-2,-7,-1,2,-14,i,2,
O=C(NCCc1ccccc1)C(=O)NC1CCCCC1,7,0,-3,2,.,-2,i,-9,
CC1CC(C)CN(C(=O)COC(=O)c2ccc(Cl)nc2)C1 (stereo unspecified),1,3,.,.,5,-9,.,.,
O=C(Cn1cnc([N+](=O)[O-])n1)N/N=C/c1cc(Cl)ccc1O,-3,-4,-1,4,-1,.,i,23,
COc1ccc(Cl)cc1S(=O)(=O)N1CCC(C(=O)NCCc2ccccc2)CC1,-2,-5,1,8,17,9,i,2,
COc1ccc2oc(C(=O)OCC(=O)Nc3ccc(C(=O)N(C)C)cc3)c(C)c2c1,2,5,-1,-3,-73,0,i,-4,
COc1ccccc1CNC(=O)CN1CCC(NC(=O)c2ccccc2F)CC1,4,-8,-5,-4,-18,-17,i,-22,
CCOC(=O)c1ccc(NC(=O)CSc2nc(N3CCOCC3)nc(N3CCOCC3)n2)cc1,-5,-4,-16,2,13,-11,i,1,
COc1ccccc1C(=O)COC(=O)CN1C(=O)c2ccccc2C1=O,-1,3,2,1,2,-7,i,-9,
COc1ccc(-n2c(=O)c3ccccc3n(CC(=O)NC3CCCCC3)c2=O)c(OC)c1,4,10,-1,-5,-36,-5,i,-12,
N#C/C(=C\c1ccc(-c2ccccc2[N+](=O)[O-])o1)C(=O)N1CCOCC1,5,8,61*,0,2,.,i,-10,eIF4H inh retest=83*;PABP polyA inh retest=26
O=C(COC(=O)c1cc[n+]([O-])cc1)Nc1ccc([N+](=O)[O-])cc1,-4,-4,4,-5,-7,.,i,-4,
CCN(CC(=O)Nc1ccc(NC(C)=O)cc1)C(=O)C1CCCN(C(=O)c2ccc(Cl)cc2)C1 (stereo unspecified),0,2,.,.,-1,.,.,-1,
COc1cccc(NC(=O)C2C3C=CC4(O3)C2C(=O)N(CCCN2CCCC(C)C2)C4C(=O)NC2CCCCC2C)c1 (stereo unspecified),3,3,-5,-4,0,-4,i,-48,
CCCCNC(=O)C1C2C=CC(C2)C1C(=O)O (stereo unspecified),-2,1,-2,-18,5,.,i,-1,
CCn1cc([N+](=O)[O-])c(C(=O)N2CCCc3ccccc32)n1,4,3,-2,1,24,-9,i,.,
CC(C)(C)c1csc(NC(=O)c2cccnc2Cl)n1,0,1,.,.,-5,.,i,3,
Cc1ccc(CN2CCCNC2=O)cc1,2,-1,-2,-6,17,-23,i,-8,
O=C(NC1CCSC1=O)c1ccc(Cl)cc1 (stereo unspecified),3,2,-2,5,.,.,i,-8,

# Compound activity: PubChem BioAssay, several laboratories
